Bioassay records from PubChem.
VDR inh = blocks the human vitamin D receptor; 400,000 tested, 0.93% active; P11473; Potency, µM, for inactives: max response, negative = inhibition, most hits filed as inhibitors; VDR-SRC2-3 peptide fluorescence polarization, 2 h; active = well fitted inhibition curve with a large enough effect; inconclusive = small, poorly fitted or top-dose-only effect, or another doubt; inactive = no such curve, though single readings can be large or run the other way; also: series mostly up to about 120 µM
Target sequence (P11473 whole entry, looked up): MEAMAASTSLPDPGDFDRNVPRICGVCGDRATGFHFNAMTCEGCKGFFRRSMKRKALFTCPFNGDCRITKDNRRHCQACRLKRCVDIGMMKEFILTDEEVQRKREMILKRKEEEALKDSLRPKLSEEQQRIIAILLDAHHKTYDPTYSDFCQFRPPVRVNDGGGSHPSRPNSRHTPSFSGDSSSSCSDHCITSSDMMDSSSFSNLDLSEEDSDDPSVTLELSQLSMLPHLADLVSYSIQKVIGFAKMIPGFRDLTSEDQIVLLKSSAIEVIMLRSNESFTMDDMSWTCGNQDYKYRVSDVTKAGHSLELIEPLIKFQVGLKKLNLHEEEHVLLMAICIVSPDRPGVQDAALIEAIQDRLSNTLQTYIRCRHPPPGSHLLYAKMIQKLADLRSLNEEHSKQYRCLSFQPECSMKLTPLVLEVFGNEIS
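Inhibition of the VDR/SRC2-3 peptide interaction is quantified by fluorescence polarization. Compounds (23 nl, pintool) incubate with the reagents for 2 hours at ambient room temperature.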
* marks the source's active call; other numbers are inactive results; ? = inconclusive; & = joins results of further samples; [ ] = dose if it differs, or a comment. % is scaled to controls: 0 for no effect and ±100 for the full control effect; potency is read from the fitted curve at half-maximal effect. Some of the compounds tested (hit frequency here may not be typical).

mol,VDR inh
COC(=O)c1ccc(N2CCc3ccccc32)c([N+](=O)[O-])c1,-14%
Cc1ccc(CSc2nc3ccncc3n2Cc2nc(-c3ccc(Cl)cc3)oc2C)cc1,11%
O=C(NC1CCN(Cc2cccc([N+](=O)[O-])c2)CC1)c1ccccc1,23%
COc1cnc(-c2ccccc2)nc1Sc1ccccc1,-2%
COc1ccc(NC(=O)COC(=O)CC2CCCC2)cc1Cl,14%
Cc1cccc(NC(=O)CSc2nc3[nH]c(=O)cc(O)c3s2)c1,?
O=C(COc1ccc(F)cc1)OCc1cc(=O)n2nc(C3CCCCC3)sc2n1,3%
Cc1nc2cnc(N3CCN(C)CC3)nc2n(CCC#N)c1=O,9%
COc1ccc(S(=O)(=O)N(CC(=O)NCc2ccco2)c2ccc(F)cc2)cc1,-12%
CCCc1nc2ccccc2c(C(=O)OCC(=O)N2CCc3ccccc32)c1CC,1%
CCCCNC(=O)C(CC)Sc1nnc(-c2ccc(OC)c(OC)c2)c(-c2ccc(OC)c(OC)c2)n1 (configuration not stated),-4%
CC(=O)N1N=C(c2cccc([N+](=O)[O-])c2)OC1c1cccc(Br)c1 (configuration not stated),12%
Cc1c(NC(=O)COC(=O)C23CC4CC(CC(Br)(C4)C2)C3)c(=O)n(-c2ccccc2)n1C,0%
CSC1=NCCN1S(=O)(=O)c1ccc2ccccc2c1,8%
Cc1cc(C(=O)Nc2cccc(C(=O)O)c2)c(C)o1,7%
O=C(c1ccccc1F)N(Cc1cccnc1)Cc1cc2cc3c(cc2[nH]c1=O)OCCO3,-1%
Cc1c(C(=O)Nc2cccc(Cl)c2)sc2nc3n(c(=O)c12)N=C(c1cccc(Br)c1)CS3,10%
Cc1ccc(Nc2cc(C)nc3c(C)ccc([N+](=O)[O-])c23)cc1,3%
CC(=O)c1cccc(OCCCOc2cccc3cccnc23)c1,11%
O=C(C1CCC1)N1CCC(c2nc3c(nnn3Cc3c(F)cccc3Cl)c(=O)[nH]2)CC1,-7%
CC(C)CN(CC(C)C)C(=O)COn1nnc2ccc(S(=O)(=O)N3CCOCC3)cc21,-23%
Cc1nc2[nH]c(=S)[nH]c2c(=O)[nH]1,-3%
O=[N+]([O-])c1ccccc1/C=C/C=N/n1c(-c2ccccc2)n[nH]c1=S,-6%
COc1ccccc1CC(=O)N1CCN(S(=O)(=O)c2ccccc2)CC1,-19%
COc1cccc(CNC(=O)CSc2ccc(-c3cccs3)nn2)c1,-8%
C=CCn1c(N)c(C(=O)Nc2ccccc2)c2nc3ccccc3nc21,-7%
O=C1C(=O)N(CCS(=O)(=O)c2ccccc2)c2ccc(Cl)cc21,133%[activator]
CCCCC(=O)Nc1cc(OC)c(NC(=O)C2CCCCC2)cc1OC,-7%
Cc1cc(N)ccc1N=Nc1c(C)n(C)n(-c2ccccc2)c1=O,-14%
COc1ccc(CC(=O)O/N=C(\N)c2ccc(C)cc2)cc1,-8%
Cc1[nH][nH]c(=O)c1N=Nc1ccc(Cl)cc1,-11%
O=C(NCc1ccco1)C(=O)NCC1OCCCN1S(=O)(=O)c1ccc(Cl)cc1 (configuration not stated),2%
COC(=O)c1c(NC(=O)c2ccco2)sc2c1CCN(C(C)=O)C2,-16%
COc1ccc(C(=O)NNC2=NC(C)(C)Cc3cc(C)c(C)cc32)cc1,16%
COc1ccc(CCNC(=O)c2c(N)no[n+]2[O-])cc1OC,6%
CN(c1ccccc1)S(=O)(=O)c1nnc(NC(=O)c2ccccc2)s1,10%
CC(c1ccccc1)N1CC(C(=O)Nc2nccs2)CC1=O (configuration not stated),2%
CCOC(=O)CN1C(=O)C(O)(CC(=O)c2cccc(OC)c2)c2ccccc21 (configuration not stated),15%
O=c1c2ccccc2c(/C=N/c2ncn[nH]2)c(O)n1Cc1ccccc1,8%&6%
CCCC(=O)Nc1nnc(CCOC)s1,8%
Cc1ccc(C)c(C(=O)Cn2c(NCCO)nc3ccccc32)c1,1%
Cc1nc(-c2ccc(F)cc2)c(CC(=O)NCC(=O)Nc2ccc(F)c(F)c2)s1,2%
COCC(=O)N1CCC(n2nccc2NC(=O)CCOc2ccccc2)CC1,-11%
O=C(CCC(=O)NCCCc1ccccc1)NCCCc1ccccc1,-14%
Cc1cc(Cl)ccc1NC(=O)CCC(=O)O,-16%
CCN(C(=O)COC(=O)CNC(=O)c1ccc2ccccc2c1)c1c(N)n(Cc2ccccc2)c(=O)[nH]c1=O,-16%
CCSc1nnc(-c2ccccc2NC(C)=O)c(=O)[nH]1,-16%
O=C1O/C(=C/C(=O)N2CCOCC2)c2ccccc21,-6%
CN(Cc1ccccc1)C(=O)COC(=O)c1ccccc1SCC(=O)N1CCCC1,-2%
COc1ccc(Cl)cc1C(=O)NNC(=S)NC(=O)c1cc(-c2ccccc2)nc2ccccc12,-17%
CCOC(=O)c1c(S(=O)(=O)N2CCc3ccccc32)c(C)n(C)c1C,-6%
COc1ccc(S(=O)(=O)Nc2cccc(S(=O)(=O)N3CCCCC3)c2)cc1,0%
CC1(C)CC(=O)C2=C(C1)N=c1s/c(=C/c3ccc(F)c(F)c3)c(=O)n1C2c1ccc(F)cc1 (configuration not stated),?
CCN(CCn1cccn1)C(=O)CC1C(=O)NCCN1CCc1ccccc1 (configuration not stated),-3%
CC(C)NC(=O)NCCCCCCS(C)=O (configuration not stated),0%
Cc1cc(-c2ccccc2)nc(SC(C(=O)O)c2ccccc2)n1 (configuration not stated),-1%
C/C(=N/Nc1ccc(Cl)cc1)c1cnnc(-c2ccccc2)n1,7%
COc1ccc(C)cc1CN(C)c1ccc(S(=O)(=O)N2CCN(C)CC2)cn1,-17%
CCCNC(=O)N1CCN(S(=O)(=O)c2ccc3c(c2)OCCO3)CC1,-19%
CCCCOC(=O)Cn1c(-c2ccccc2)nc2ccccc2c1=O,-21%

Grouped by structure: those above containing two or more sulfur atoms (six)
mol,VDR inh
Cc1cccc(NC(=O)CSc2nc3[nH]c(=O)cc(O)c3s2)c1,?
CSC1=NCCN1S(=O)(=O)c1ccc2ccccc2c1,8%
Cc1c(C(=O)Nc2cccc(Cl)c2)sc2nc3n(c(=O)c12)N=C(c1cccc(Br)c1)CS3,10%
COc1cccc(CNC(=O)CSc2ccc(-c3cccs3)nn2)c1,-8%
CN(c1ccccc1)S(=O)(=O)c1nnc(NC(=O)c2ccccc2)s1,10%
COc1ccc(S(=O)(=O)Nc2cccc(S(=O)(=O)N3CCCCC3)c2)cc1,0%

New compounds follow.
mol,VDR inh
CCN(CC)c1ccc(NC(=O)CSc2nc(C3CC3)nc3ccccc23)cc1C,-7%
CC1=C(C(=O)NCc2ccco2)C2(CCC(C)CC2)OC1=O (configuration not stated),-11%
CCN(C(=O)CN1CCCCC1C)c1c(N)n(Cc2ccccc2)c(=O)[nH]c1=O (configuration not stated),9%
CCCC(C(=O)Nc1cc(S(=O)(=O)N2CCOCC2)ccc1OC)c1ccccc1 (configuration not stated),3%
Cc1ccc(NC(=O)CSc2cn[nH]n2)cc1,-4%
Cc1cccc(N/C(=N/S(=O)(=O)c2ccccc2)c2ccccc2)n1,-10%
Cc1ccccc1NC(=S)NC(=O)/C=C/c1ccco1,?
CN(c1ccccc1)S(=O)(=O)c1ccc(Cl)c(C(=O)Nc2ccncc2)c1,8%
CCOC(=O)CNC(=O)c1cn(C)c(=O)c2cc(OC)c(OC)cc12,-5%
COc1ccc2c(c1)OC(O)(C(F)(F)C(F)F)CC2=O (configuration not stated),-15%
Cc1ccc(CSc2nnc3c(n2)OC2(Nc4ccccc4-3)C(=O)Nc3ccc(F)cc32)cc1 (configuration not stated),-15%
CC(C)CC(NC(=O)/C(=C/c1ccco1)NC(=O)c1ccc(Br)o1)C(=O)O (configuration not stated),-4%
Cc1nn2c(NCCN(C)C)c3c(nc2c1-c1ccccc1)CCC3,-2%
Cn1c(=O)c2ncn(CC(=O)NCCOc3ccccc3)c2n(C)c1=O,-10%
COC(=O)c1ccc(NC(=O)CSc2nnc(-c3ccncc3)n2N)cc1,2%
CCOc1ccccc1NC(=O)CCCc1nc2ccccc2c(=O)[nH]1,4%
CCN1CCN(C(=O)Cn2ncc3c([nH]c4ccccc43)c2=O)CC1,-7%
CC(=O)Nc1ccc(S(=O)(=O)Nc2ccc(C(=O)NCC(=O)O)cc2)cc1,-17%
O=C(COC(=O)c1cc(=O)[nH]c2ccccc12)NC(=O)c1ccccc1,1%
CCc1ccc2occ(CC(=O)N(Cc3ccccc3)C3CCS(=O)(=O)C3)c2c1 (configuration not stated),8%
CC/C(=C(/c1ccccc1)c1ccc(OCC[N+](C)(C)C)cc1)c1ccccc1,-22%
O=C(COC(=O)/C=C/c1cccc(Br)c1)Nc1cccc(S(=O)(=O)NC2=NCCC2)c1,-24%
CC(C)CNC(=O)COc1ncnc2sccc12,-17%
COc1ccccc1N1CCN(C2CCCN(C(=O)c3ccsc3)C2)CC1 (configuration not stated),13%
CC(=O)Nc1cc2nc(C)n(Cc3ccccc3[N+](=O)[O-])c2nc1C,-2%
O=C(NCC(=O)N(c1ccc2c(c1)OCCO2)C(C(=O)NC1CCCC1)c1ccco1)c1ccco1 (configuration not stated),-10%
CCn1c(C)nc2cc(C(=O)N/N=C/c3ccc(O)c(O)c3O)ccc21,-22%
c1ccc(COc2ccc(CN3CCN(c4ccccn4)CC3)cc2)cc1,5%
O=C(Cn1c(=O)nc(-c2ccccc2F)c2cc(Cl)ccc21)Nc1ccccc1C(F)(F)F,10%
COc1ccc(/C=C(/NC(=O)c2ccccc2Cl)C(=O)O)cc1,-9%
CCc1ccc(N(C(=O)CNC(=O)c2ccco2)C(C(=O)NC2CCCC2)c2ccncc2)cc1 (configuration not stated),8%
Cc1ccc(C)c(CSc2nnc(CCN)o2)c1,-5%
Cc1cccc(CC(=O)NC2CCS(=O)(=O)C2)c1 (configuration not stated),0%
CS(=O)(=O)c1[nH]nc(-c2ccccc2)c1C#N,-13%
O=C(COC(=O)c1ccccc1F)NC1CC1,8%
CC1CCc2c(sc(NC(=O)C3=COCCO3)c2C(N)=O)C1 (configuration not stated),-4%

Part of the list above, set out differently:
Cc1ccc(C)c(CSc2nnc(CCN)o2)c1
  VDR inh = -5%

Cc1cccc(CC(=O)NC2CCS(=O)(=O)C2)c1 (configuration not stated)
  VDR inh = 0%

New compounds follow.
mol,VDR inh
COc1ccc(Cc2nnc(NC(=O)c3cccs3)s2)cc1OC,-4%
COc1ccccc1NS(=O)(=O)c1cc(C(=O)NCc2ccco2)ccc1C,-12%
CCc1ccc(/C=N/NC(=O)c2ccccn2)cc1,-6%
COc1ccc(OC)c(CCNC(=O)c2cccc(NC(=O)C3=C(C)OCCS3)c2)c1,1%
O=C(NCCCN1CCOCC1)c1cc(-c2ccc3c(c2)OCO3)nc2ccccc12,-5%
CCC(=O)Nc1nnc(Cc2ccccc2)s1,-15%
Cc1cccc(NC(=O)C2CCN(c3nc4ccccc4[nH]3)CC2)c1C,12%
CCOC(=O)C1CCN(C(=O)CN(c2ccc(OC)cc2)S(=O)(=O)c2c(C)nn(C)c2C)CC1,2%
CC1=C(C(=O)OC(C)(C)C)C(c2cccs2)NC(=O)N1 (configuration not stated),-9%
CCCc1cc(=O)[nH]c(SCC(=O)N(C)Cc2ccccc2)n1,-16%
Cc1ccc(OC(C)C(=O)Nc2ccc(Cl)cn2)c([N+](=O)[O-])n1 (configuration not stated),-1%
CC1CCCCN1C(=O)c1cc(F)c(F)cc1Cl (configuration not stated),-3%
O=C(CSc1nnc2c(n1)[nH]c1ccc(F)cc12)Nc1ccccc1F,5%
O=C1NCC(COc2cccc3ccccc23)O1 (configuration not stated),-4%
CN(C)S(=O)(=O)Oc1ccccc1C(=O)Nc1ccc(F)cc1,?
O=C(CNS(=O)(=O)c1ccc(Cl)c(C(F)(F)F)c1)NC1CCCCC1,-11%
COc1cc(NC(=O)N2CCSc3ccccc32)cc(OC)c1OC,6%
COc1ccc(OC)c(S(=O)(=O)NCC(c2ccc3c(c2)OCO3)N2CCOCC2)c1 (configuration not stated),-8%
COc1ccc(-c2ccc3c(c2)S(=O)(=O)c2cccc(C(=O)NCc4cccc(OC(F)(F)F)c4)c2C3=O)cc1OC,-4%
O=C(/C=C/c1ccccc1)Nc1cccc(C(=O)NCCCc2ccccc2)c1,-2%
CCn1c(COc2ccccc2C)nnc1SCC(=O)Nc1ccc2c(c1)OCCO2,13%
COc1ccc(CC(=O)OCC(=O)NC(=O)NC(C)C)cc1,-3%
CCn1c(C)nnc1SCC(=O)Nc1ccccc1Cl,-1%
O=C(Cn1cc(COc2c(Br)cc(F)cc2Br)nn1)c1ccc(O)cc1,-27%
Cc1cc2ccccc2nc1SCC(=O)Nc1nc(-c2ccccc2)cs1,5%
COCCNC(=O)Cc1ccc(NC(=O)N2CCCCc3ccccc32)cc1,1%
Cc1cccc(CSc2nc(=O)c3c(n2C)NC(=O)CC3c2cccc(O)c2)c1 (configuration not stated),-5%
CC1Cc2ccccc2N1S(=O)(=O)c1cccc(C(=O)NCC(c2ccco2)N2CCCC2)c1 (configuration not stated),0%
CCC1CN(C(=O)N2CCC(C(=O)N3CCN(c4ccc(F)cc4)CC3)CC2)c2ccccc2O1 (configuration not stated),-3%
CC(C)Oc1ccc(CNC(=O)C2CCN(C(=O)c3sccc3-n3cccc3)CC2)cc1,-7%
CCc1nn(C(CC)C(=O)NCc2ccc(OC)c(OC)c2)c(=O)c2cc3oc(C)cc3n12 (configuration not stated),9%
